gsp antag – antagonizes gsp, the McCune-Albright syndrome mutation | 340,000 compounds, 0.4% hits | Potency, µM (highest dose often 76.9 µM), for the others: at the top dose activity change, negative = inhibition, most hits filed as inhibitors | gsp-mutant cells, cAMP HTRF, 30 min; control for the full effect not named in the record; active = falling curve of any shape with a large fitted effect; inconclusive = falling curve, mostly with a smaller effect; inactive = flat or rising curve; cell line not stated here;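 further: intracellular cAMP measured with PDE inhibitor Ro 20-1724 present during compound exposure; potency means the concentration at half of the fitted maximal effect; on the % scale 0 is the no-effect control and ±100 the full control effect; nearly all actives have a fitted effect of over 65% in size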
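Cells in G418 medium, seeded 16-24 h, 37C; buffer exchange to DPBS + 1 mM CaCl2, 0.5 mM MgCl2, 0.05% BSA; cpds in DMSO + […] (300 uM stock), 30 min 37C; HTRF cAMP detection.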
D2 potentiator – potentiates the human D2 dopamine receptor allosterically | DiscoveRx D2 beta-arrestin cells, luminescence, 90 min; 100% = 57 uM dopamine signal | potentiation, % (no concentration beside the values) | 360,000 compounds, 0.23% hits; active = potentiation of 50% or more; inconclusive = 30% to 50%; inactive = 30% or less;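 further: compound concentration not given in the record; tested on top of an EC20 dose of dopamine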
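D2 cells co-treated with compound plus 50 nM dopamine (EC20) for 90 min at 37 deg C to detect potentiation. Beta-arrestin recruitment was read as enzyme-fragment luminescence after 1 h at ambient temperature. Full response was set by 57 uM dopamine.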
Six1-Eya2 inh – Six1/Eya2 interaction inhibition. Q15475+O00167. AlphaScreen GST-Six1/His-Eya2 binding, biochemical; stronger effect = lower value; control for the full effect not named in the record. activity change, % (concentration not given with the values). 360,000 compounds, 0.56% hits. AID 651725; in the data active = activity change below about -65%; inconclusive = about -30% to -65%; inactive = above about -30%; further: on the % scale 0 is the no-effect control and ±100 the full control effect
Target sequence (O00167 whole entry, looked up): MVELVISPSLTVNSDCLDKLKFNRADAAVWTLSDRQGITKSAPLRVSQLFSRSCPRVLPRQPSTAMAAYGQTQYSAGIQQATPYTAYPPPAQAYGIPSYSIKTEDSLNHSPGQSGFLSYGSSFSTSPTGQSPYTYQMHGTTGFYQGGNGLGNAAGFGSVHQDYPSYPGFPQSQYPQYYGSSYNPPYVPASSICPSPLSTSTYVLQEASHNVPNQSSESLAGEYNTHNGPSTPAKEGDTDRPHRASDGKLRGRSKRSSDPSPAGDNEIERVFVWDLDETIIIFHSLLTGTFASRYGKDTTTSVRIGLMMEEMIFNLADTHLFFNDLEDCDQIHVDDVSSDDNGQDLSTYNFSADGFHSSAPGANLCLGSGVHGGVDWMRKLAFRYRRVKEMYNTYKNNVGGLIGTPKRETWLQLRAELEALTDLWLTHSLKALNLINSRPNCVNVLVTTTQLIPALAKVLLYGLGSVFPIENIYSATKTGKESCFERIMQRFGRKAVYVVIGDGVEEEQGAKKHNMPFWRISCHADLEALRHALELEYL
Target sequence (Q15475 whole entry, looked up): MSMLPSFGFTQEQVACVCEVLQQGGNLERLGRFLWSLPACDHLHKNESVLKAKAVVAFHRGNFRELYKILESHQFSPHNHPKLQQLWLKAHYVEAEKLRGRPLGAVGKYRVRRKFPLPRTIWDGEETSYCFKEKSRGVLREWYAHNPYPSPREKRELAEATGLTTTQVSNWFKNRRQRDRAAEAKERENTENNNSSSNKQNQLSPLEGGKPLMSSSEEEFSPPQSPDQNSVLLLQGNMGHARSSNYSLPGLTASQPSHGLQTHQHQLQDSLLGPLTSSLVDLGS
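GST-Six1 + His-Eya2 (5X stock: 250/500 nM); Tris pH 8.0, 300 mM NaCl, 0.05% BSA, 0.02% Tween 20; GSH donor/Ni acceptor beads; 1 h 37 °C dark; AlphaScreen readout.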
gsp ag – agonists of gsp mutant (McCune-Albright syndrome). gsp mutant cells, cAMP HTRF, 30 min; control for the full effect not named in the record. 340,000 compounds, 0.13% hits. AID 624287. Potency, µM (doses to about 76.9 µM), for the others: at the top dose activation (cAMP increase), hits mostly activators; active = well fitted activation curve with a large enough effect; inconclusive = small, poorly fitted or top-dose-only effect, or another doubt; inactive = no such curve, though single readings can be large or run the other way; cell line not stated here;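 further: phosphodiesterase inhibitor Ro 20-1724 added with compounds to block cAMP breakdown; potency means the concentration at half of the fitted maximal effect; nearly all actives have a fitted effect of over 60% in size; about a fifth of the inactives were tested at one dose only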
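Cells in DMEM/10% FBS with G418 were pretreated with compounds in DMSO plus […] (300 uM stock) for 30 min at 37C. cAMP was measured by HTRF (cAMP-d2 plus anti-cAMP antibody-K) after 30 min at room temperature.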
D2 agonist – human D2 receptor agonism in beta-arrestin assay; P14416; DiscoveRx PathHunter D2 beta-arrestin, luminescence, 90 min; 100% = 57 uM dopamine signal; activation, % (concentration not given with the values); 360,000 compounds, 0.084% hits; AID 624465; in the data active = activation above about 40%; inconclusive = about 15% to 40%; inactive = below about 15%; further: the text of the record calls up to 30% inactive
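Agonist mode: compounds alone added to overnight-plated D2 PathHunter cells for 90 min at 37 C, with 57 uM final dopamine (EC100) defining full response. Beta-arrestin recruitment detected by chemiluminescent reagent, read after 1 h at ambient temperature.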
CtBP-E1A inh – inhibitors of CtBP/E1A interaction; AlphaScreen GST-E1A/His-CtBP binding, 1536-well; stronger effect = lower value; control for the full effect not named in the record; activity change, % (no concentration beside the values); 340,000 compounds, 0.49% hits; in the data active means activity change below about -65%; inconclusive means about -30% to -65%; inactive means above about -30%; further: on the % scale 0 is the no-effect control and ±100 the full control effect
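Protein mix (5X: 125 nM each GST-E1A, His-CtBP) was incubated with pinned compound 2 h at 37 deg C in dark, in 50 mM Tris pH 8.0 buffer with 300 mM NaCl. Glutathione donor and nickel acceptor beads followed; AlphaScreen signal read after 1 h.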
Numbers without * were called inactive; ? = inconclusive; / = no result given; [ ] = remark or other dose.

molecule	gsp antag	D2 potentiator	Six1-Eya2 inh	gsp ag	D2 agonist	CtBP-E1A inh
COc1ccccc1-c1ccc2c(c1)C(C)(Cc1cc(Cl)ccc1C(F)(F)F)C(=O)N2 (stereo not given)	/	-1	-3	/	8.6	-16
CN1CCC(=O)N([C@H](CO)Cc2ccccc2)CC1	10%	-3	2	/	-4.2	8
C=CCn1c(=NC(=O)C2COc3ccccc3O2)sc2cc(S(N)(=O)=O)ccc21 (stereo not given)	?	-13	3	-8%[15.4 µM]	1.7	-16
Cc1ccc(OCc2nc(-c3cccs3)no2)c([N+](=O)[O-])c1	-16%	-1	1	-9%[15.4 µM]	-2.0	3
CC1(C)CC(=O)C2=C(C1)Oc1ncn(Cc3ccco3)c(=N)c1C2c1ccccc1 (stereo not given)	6%	-16	-1	?	-3.1	7
Cc1[nH]c2ccccc2c1C(=O)C(=O)NCc1nnnn1-c1ccc(F)c(F)c1	/	-3	-2	-78%[inhibitor]	-1.3	7
COc1cc(F)ccc1CN1CCC(n2nccc2NC(=O)C2CCOC2)CC1 (stereo not given)	16%	-9	2	-14%	-1.8	5
CC(C)C(=O)Nc1nnc(Cc2c[nH]c3ccccc23)s1	7%	-11	-3	3%	-1.4	-11
CC(C)CN(CC(C)C)C(=S)Nc1ccc(Cl)cc1	4%	-5	5	-22%[15.4 µM]	-0.2	-2
O=C(c1ccc(COCC(F)(F)F)o1)N1CCCC1	-5%	2	0	?	7.4	0
COc1ccc(C(C)(NC(C)=O)c2nc(-c3ccncc3)cs2)cc1 (stereo not given)	/	-7	2	/	3.2	4
COC(=O)c1ccc(C(=O)OC)c(NC(=S)N2CCN(c3ccccn3)CC2)c1	-9%	1	-6	?	0.7	-2
COCC(=O)Nc1ccc2c(c1)[C@@H]1C[C@H](CC(=O)OC)O[C@H](CO)[C@@H]1O2	/	/	7	-17%	-3.0	-2
Cc1ccc(C)c(NC(=S)N2CCN(S(C)(=O)=O)CC2)c1	5%	13	5	?	-3.1	8
CCN(C(=S)NCCOC)c1cccc2ccccc12	1%	-2	-1	12%[15.4 µM]	-5.1	11
O=c1oc2c3c(nn2c2ccccc12)CCCC3	9%	-9	-7	7%	0.8	9
O=C(CSC(=S)N1CCOCC1)c1cc(Br)cc(Br)c1O	-4%	0	-12	17%[15.4 µM]	-0.7	-13
O=C(NCc1nnc(SCC(=O)N2CCCCCC2)o1)c1ccccc1F	-2%	-5	-1	?	-0.8	8
Cc1ccc(C2CC(c3cccs3)=NN2C(=O)CSc2nc3ccccc3o2)cc1 (stereo not given)	-3%	1	14	2%	-0.2	-3
Cc1cc(C(=O)Nc2ccc3c(c2)OCCO3)ccc1[N+](=O)[O-]	-15%	-21	15	-11%	1.0	/
O=C(NNS(=O)(=O)c1ccc([N+](=O)[O-])cc1)c1ccc([N+](=O)[O-])cc1	7%	11	1	-20%	6.8	-9
Cc1csc(NC(=O)Cn2cnnn2)n1	11%	-7	-1	-26%	-2.5	-4
CCOc1ccccc1NC(=O)N1CCCC(c2nc(-c3ccc(C)o3)no2)C1 (stereo not given)	?	-1	0	-90%[inhibitor]	-0.1	0
COc1ccc(N2CCN(C(=O)CN3C(=O)C4CC=CCC4C3=O)CC2)cc1 (stereo not given)	-24%	-10	1	15%	3.8	0
COc1cc(OC)cc(C(=O)N[C@H](C(=O)Nc2nc3c(s2)CCCC3)C(C)C)c1	-18%	-15	5	-54%[inhibitor]	-2.5	/
CC(Sc1nc2sc3c(c2c(=O)n1-c1ccccc1)CCCC3)C(=O)O (stereo not given)	?	0	13	28%	-0.7	7
Cc1cccc(C)c1NS(=O)(=O)c1ccc(-c2cnc(C3CC3)o2)cc1	7%	-5	-7	25%	-1.8	/
Fc1ccccc1CN(CCN1CCOCC1)C(=S)Nc1ccccc1Cl	-14%	-9	15	-5%[15.4 µM]	-6.9	1
N#C/C(=C\c1ccc(OCCN2CCOCC2)cc1)C(=O)Nc1ccccc1	-1%	-2	-6	2%[15.4 µM]	-2.5	0
Cc1cccc(N2CCN(C(=O)c3ccc(S(=O)(=O)N(C)c4ccccc4)cc3)CC2)c1C	22%	-37	-12	-7%[15.4 µM]	-1.3	-5
Cc1ccc(N(CC(=O)NC2CCCC2)C(=O)c2ccc(C)s2)cc1	-11%	-15	-6	-27%	-7.2	/
CC(=O)Nc1sc2c(c1CN1CCN(c3ccc(F)cc3)CC1)CCCC2	1%	-37	?	1%	-4.1	-21
O=C(c1cccnc1NCc1ccccc1)N1CCOCC1	-1%	1	-3	0%	-4.3	8
COc1ccc(OC)c(NC(=O)NCCCCc2ccccc2)c1	-1%	-31	-1	-20%[15.4 µM]	-4.4	-9
Nc1nc2ccc(C(=O)N3CCCCC3)cc2s1	5%	-2	?	-2%[15.4 µM]	0.9	?
CCc1ccc(OCCCOc2ccc(C=O)cc2)cc1	10%	-22	54	0%	-2.4	52
COc1ccc(NC(=O)C2CC(=O)OC2c2ccccc2)cc1 (stereo not given)	9%	-15	3	-6%	-2.3	4
O=c1[nH]c2ccccc2n1C1=CCNCC1	9%	-9	-21	-5%[15.4 µM]	-0.9	-15
CC(=O)N1CCN(CC(=O)Nc2ccc(Cl)c(S(=O)(=O)N(C)C)c2)CC1	5%	-8	11	5%	-1.6	-2
Cc1nc(NC(=S)NC(=O)c2ccco2)sc1C(=O)N(C)C	2%	-10	14	27%	-6.8	7
COC(=O)c1ccc(C23CC4(C2)[C@H](CN(Cc2cccnc2)[C@@H]4c2ccccc2)C3c2ccc(Cl)nc2)cc1 (stereo not given in full)	-12%	-12	-8	/	3.1	-2
O=C1CC(c2ccccc2)CC(=O)C1CS(=O)(=O)c1ccccc1 (stereo not given)	-3%	-2	-4	-3%	-0.7	5
O=[N+]([O-])c1cccc2cnccc12	10%	-2	-16	3%	2.2	-24
CCc1nnc(NC(=O)C(NS(=O)(=O)c2ccccc2)C(C)C)s1 (stereo not given)	/	-2	-2	19%	-1.0	-1
Cc1ccc(Cn2c(C3CCCN3c3nc(-c4cc(Cl)c(N)c(Cl)c4)cs3)nc3cc(C(=O)NCCCO)ccc32)cc1 (stereo not given)	-6%	-8	-4	/	-3.5	-1

Rewritten with each value named: part of the list above.
structure: CC(C)CN(CC(C)C)C(=S)Nc1ccc(Cl)cc1
- gsp antag: 4%
- D2 potentiator: -5
- Six1-Eya2 inh: 5
- gsp ag: -22%[15.4 µM]
- D2 agonist: -0.2
- CtBP-E1A inh: -2
structure: O=C(c1ccc(COCC(F)(F)F)o1)N1CCCC1
- gsp antag: -5%
- D2 potentiator: 2
- Six1-Eya2 inh: 0
- gsp ag: ?
- D2 agonist: 7.4
- CtBP-E1A inh: 0

Single values from above:
O=[N+]([O-])c1cccc2cnccc12 in gsp ag reads 3%
O=C(c1cccnc1NCc1ccccc1)N1CCOCC1 in gsp antag reads -1%
CCc1nnc(NC(=O)C(NS(=O)(=O)c2ccccc2)C(C)C)s1 (stereo not given) in D2 potentiator reads -2
COc1ccc(OC)c(NC(=O)NCCCCc2ccccc2)c1 in gsp antag reads -1%
Cc1ccc(N(CC(=O)NC2CCCC2)C(=O)c2ccc(C)s2)cc1 in Six1-Eya2 inh reads -6

Following part:
molecule	gsp antag	D2 potentiator	Six1-Eya2 inh	gsp ag	D2 agonist	CtBP-E1A inh
Cc1cccc(NC(=O)c2cc(NC(=O)C3CCCCC3C(=O)O)ccc2N2CCOCC2)c1 (stereo not given)	-4%	-6	9	?	-2.4	0
O=C(CSc1ncccn1)Nc1ccc2c(c1)CCC2	2%	-7	4	-16%	1.4	6
CCCN(S(=O)(=O)c1ccccc1F)S(=O)(=O)c1ccccc1Br	-13%	4	11	-18%	-2.9	6
Cc1c(CNC(=O)c2c([N+](=O)[O-])cnn2C)cnn1C	12%	-9	4	12%[15.4 µM]	-3.4	3
Cc1cccc(C)c1NC(=S)NCCc1ccc(O)c(O)c1	-6%	7	-8	5%[15.4 µM]	4.8	7
COC(=O)c1ccc(NC(=O)C(=O)NCC2CCCO2)cc1 (stereo not given)	6%	1	4	?	-4.1	7
C[C@H]1CN([C@@H](C)CO)C(=O)c2cc(NC(=O)CCN3CCOCC3)ccc2O[C@H]1CN(C)C(=O)Nc1ccc(F)cc1	6%	-5	0	/	0.5	6
O=C(C1=C[C@@H](c2ccccc2)C[C@@H](OCc2ccc(CO)cc2)O1)N1CCN(Cc2ccc3c(c2)OCO3)CC1	-25%	-7	-22	?	-2.4	-12
CCC(CO)n1cnnc1-c1ccncc1 (stereo not given)	3%	-18	11	7%	-0.2	2
COCCN(Cc1ccc(C)cc1)C(=O)[C@H]1O[C@@H](n2ccc(=O)[nH]c2=O)[C@H](O)[C@@H]1O	/	-4	9	/	1.7	0
Cc1cc(=O)oc2c(CN3CCOCC3)c(O)ccc12	-7%	-8	-8	?	-7.6	-1
COCCCC1CCN(C(=O)C2CCC(=O)N(CCc3ccccc3)C2)CC1 (stereo not given)	-2%	6	0	-81%[inhibitor]	0.7	-17
O=C(CCn1ccnc1)Nc1ccc2ccccc2c1	-3%	-23	2	-15%[15.4 µM]	-2.2	7
Cn1c(CCc2nc3ccccc3[nH]2)n[nH]c1=S	0%	-6	0	0%[15.4 µM]	-1.1	7
Nc1n[nH]c(C2CCCCC2)n1	7%	-3	4	-165%[inhibitor]	-2.4	/

Part of the list above, with each value named.
COCCCC1CCN(C(=O)C2CCC(=O)N(CCc3ccccc3)C2)CC1 (stereo not given)
  gsp antag = -2%; D2 potentiator = 6; Six1-Eya2 inh = 0; gsp ag = -81%[inhibitor]; D2 agonist = 0.7; CtBP-E1A inh = -17
O=C(CSc1ncccn1)Nc1ccc2c(c1)CCC2
  gsp antag = 2%; D2 potentiator = -7; Six1-Eya2 inh = 4; gsp ag = -16%; D2 agonist = 1.4; CtBP-E1A inh = 6
Cn1c(CCc2nc3ccccc3[nH]2)n[nH]c1=S
  gsp antag = 0%; D2 potentiator = -6; Six1-Eya2 inh = 0; gsp ag = 0%[15.4 µM]; D2 agonist = -1.1; CtBP-E1A inh = 7

Next section
molecule	gsp antag	D2 potentiator	Six1-Eya2 inh	gsp ag	D2 agonist	CtBP-E1A inh
O=C(NCc1n[nH]c(=S)n1-c1ccc([N+](=O)[O-])cc1)c1ccc(S(=O)(=O)N2CCOCC2)cc1	-6%	-14	14	?	8.0	/
O=C(O)c1cccc(-n2cccc2C=C2C(=O)c3ccccc3C2=O)c1	35µM*	9	-14	-16%[15.4 µM]	-1.0	-2
COc1cccc(-c2n[nH]c(=S)n2Cc2ccco2)c1OC	-8%	-1	2	12%	5.9	-2
O=c1oc2ccccc2cc1C1=Nn2c(nnc2-c2cccnc2)SC1	7%	8	1	13%	-3.1	-3

Screening data from PubChem BioAssay.
